Env fusion inh: HIV envelope-mediated fusion inhibition; HeLa-JRFL Env/CEM21 cell fusion, luciferase; inhibition, % at 12.3 µM; 360,000 compounds, 1.1% hits; AID 651610;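 active = mean replicate inhibition score of at least 50 and every replicate individually at or above 50; inconclusive = only one of the two criteria met; inactive = mean below 50 and not all replicates reaching 50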;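 also: 0% = plate neutral controls and 100% = maraviroc near 300 nM; one replicate is shown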
An asterisk follows results filed as active; ? = inconclusive; [ ] = dose if it differs, or a comment. This is a subset; count on the stated rates, not on these rows.

Env fusion inh,molecule
-20.3[16.7 µM],CC(C)C#Cc1ccc2c(c1)O[C@@H](CN(C)C)[C@@H](C)CN([C@H](C)CO)S2(=O)=O
16.1[16.7 µM],O=C(C[C@H]1C[C@@H]2c3cc(NC(=O)c4ccc5c(c4)OCO5)ccc3O[C@@H]2[C@@H](CO)O1)NC1CCCCC1
8.4,Nc1ccn([C@@H]2O[C@H](C(=O)N[C@H]3CCCCNC3=O)[C@@H](O)[C@H]2O)c(=O)n1
-4.5,O=C1N[C@@H](Cc2ccccc2)C(=O)N2[C@H]1CSCCS2(=O)=O
-12.5[16.7 µM],COc1ccc2c3c(n(C)c2c1)[C@@H](CO)N(C(=O)Nc1ccc(F)cc1)CC31CN(S(=O)(=O)c2cccc(C)c2)C1
12.3,O=C(NCC1CCN(C(=O)C(=O)c2cc3ccccc3o2)CC1)c1cccnc1
-11.9[16.7 µM],CC(C)NC(=O)Nc1ccc2c(c1)CC(=O)N([C@H](C)CO)C[C@H](C)[C@H](CN(C)CC1CC1)O2
7.4,O=C(Nc1c(F)c(F)c(F)c(F)c1F)OC[C@@H]1CSCCS(=O)(=O)N1
6.5[16.7 µM],C[C@@H]1CN([C@@H](C)CO)C(=O)c2cc(NC(=O)Cc3ccccc3)ccc2O[C@H]1CN(C)Cc1ccc2c(c1)OCO2
25.5[16.7 µM],Cc1ccc(S(=O)(=O)Nc2cccc3c2O[C@@H](CN(C)C(=O)Nc2cccc4ccccc24)[C@H](C)CN([C@H](C)CO)C3=O)cc1
-12.8[16.7 µM],Cc1ccc(-c2ccc3c(c2)O[C@@H](CN(C)C(=O)CC2CC2)[C@@H](C)CN([C@@H](C)CO)S3(=O)=O)cc1
11.0[16.7 µM],C[C@@H]1CN([C@@H](C)CO)C(=O)c2cc(-c3ccncc3)cnc2O[C@H]1CN(C)C(=O)C1CCC1
22.5,COc1cc2c(NCCCCCCO[N+](=O)[O-])ncnc2c(OC)c1OC
-19.4[16.7 µM],O=C(C[C@@H]1C[C@H]2c3cc(NC(=O)C4CCOCC4)ccc3O[C@H]2[C@@H](CO)O1)NCc1ccc(Oc2ccccc2)cc1
0.1[16.7 µM],O=C(NC1Cc2ccccc2C1)[C@@H]1[C@@H](CO)[C@@H]2Cn3c(cccc3=O)[C@H]1N2C(=O)CC1CC1

Reprinted at random: 4 compounds from above, in no set order.
Env fusion inh,molecule
6.5[16.7 µM],C[C@@H]1CN([C@@H](C)CO)C(=O)c2cc(NC(=O)Cc3ccccc3)ccc2O[C@H]1CN(C)Cc1ccc2c(c1)OCO2
-12.5[16.7 µM],COc1ccc2c3c(n(C)c2c1)[C@@H](CO)N(C(=O)Nc1ccc(F)cc1)CC31CN(S(=O)(=O)c2cccc(C)c2)C1
-20.3[16.7 µM],CC(C)C#Cc1ccc2c(c1)O[C@@H](CN(C)C)[C@@H](C)CN([C@H](C)CO)S2(=O)=O
11.0[16.7 µM],C[C@@H]1CN([C@@H](C)CO)C(=O)c2cc(-c3ccncc3)cnc2O[C@H]1CN(C)C(=O)C1CCC1

Next compounds follow:
Env fusion inh,molecule
-5.6[16.7 µM],CO[C@H]1CN(C)C(=O)c2cc(NS(=O)(=O)c3cn(C)cn3)ccc2OC[C@H](C)N(CCC(F)(F)F)C[C@@H]1C
-13.8[16.7 µM],C[C@H](CO)N1C[C@H](C)[C@H](CN(C)C(=O)NC2CCCC2)OCc2cn(nn2)CCCC1=O
6.9,COC(=O)c1cc2c(c3c4cc(C)ccc4n(S(=O)(=O)c4ccc(C)cc4)c13)C(=O)N(C)C2
-0.7[16.7 µM],C[C@@H]1CCCCO[C@@H](CN(C)Cc2ccc3c(c2)OCO3)[C@@H](C)CN([C@@H](C)CO)C(=O)c2cc(N(C)C)ccc2O1
13.0[16.7 µM],CNC[C@@H]1Oc2cc(C3=CCCC3)ccc2S(=O)(=O)N([C@@H](C)CO)C[C@H]1C
-12.6[16.7 µM],CO[C@H]1CN(C)C(=O)c2cc(NC(C)=O)ccc2OC[C@@H](C)N(S(C)(=O)=O)C[C@@H]1C
10.1[16.7 µM],Cc1noc(C)c1NC(=O)Nc1cccc2c1O[C@@H](CN(C)S(C)(=O)=O)[C@@H](C)CN([C@@H](C)CO)C2=O
-18.1[16.7 µM],CO[C@H]1CN(C)C(=O)c2ccc(NC(C)=O)cc2OC[C@@H](C)N(C(=O)Cc2ccccn2)C[C@@H]1C
-6.5[16.7 µM],C[C@H](CO)N1C[C@H](C)[C@@H](CN(C)Cc2ccc(Cl)c(Cl)c2)Oc2ccc(NC(=O)c3ccncc3)cc2C1=O
13.5[16.7 µM],CO[C@@H]1CC[C@H]2CCN(C)C(=O)[C@@H](C)N(C)C(=O)c3cccc(C#N)c3OC[C@H]1O2
-80.5,CN(C(=O)[C@H]1O[C@@H](n2cnc(C(N)=O)n2)[C@H](O)[C@@H]1O)c1ccccc1
28.1[16.7 µM],Cc1noc(C)c1S(=O)(=O)Nc1ccc2c(c1)C(=O)N([C@H](C)CO)C[C@@H](C)[C@H](CN(C)Cc1ccc(C(F)(F)F)cc1)OCCCC[C@H](C)O2
-15.2,COc1ccc(OC)c(S(=O)(=O)NCC2CCN(C(=O)C(=O)c3cc4ccccc4o3)CC2)c1
3.6[16.7 µM],C[C@@H]1CN([C@@H](C)CO)C(=O)c2ccccc2-c2ccccc2CO[C@H]1CN(C)S(C)(=O)=O
14.0,CC(C)CNc1cccc2c1S(=O)(=O)N[C@H](CC(C)C)CO2
3.2[16.7 µM],CN1C(=O)c2cc(NC(=O)Cc3cccs3)ccc2OC[C@@H]2O[C@@H](CC(=O)N[C@@H]3CCN(Cc4ccccc4)C3)CC[C@@H]21
2.2[16.7 µM],CC(C)NC(=O)N(C)C[C@H]1Oc2ccc(NC(=O)CCCN(C)C)cc2CC(=O)N([C@@H](C)CO)C[C@@H]1C
-18.2,COC(=O)CCN(Cc1ccc(OC)cc1OC)S(=O)(=O)c1ccccc1Br
-0.4[16.7 µM],CO[C@@H]1CN(C)C(=O)c2cc(NC(=O)C3CC3)ccc2OC[C@@H](C)N(C(=O)CN2CCOCC2)C[C@H]1C
35.1,COc1ccc(C=NN(C)C(=O)Nc2cccc(Cl)c2)cc1OC
-25.2[16.7 µM],CC=Cc1ccc2n(c1=O)C[C@@H]1[C@@H](CO)[C@H](C(=O)NCc3ccc(F)cc3)[C@H]2N1CCC (mixture of isomers)
-1.9[16.7 µM],CO[C@@H]1CC[C@H]2CCOc3c(C#N)cccc3C(=O)N(C)[C@H](C)C(=O)N(C)C[C@@H]1O2
-11.2[16.7 µM],CCCN1C[C@@H](C)[C@H](OC)CN(C)C(=O)c2ccc(NC(=O)c3ccccc3F)cc2OC[C@H]1C
4.5[16.7 µM],C[C@@H]1CCCCO[C@@H](CN(C)CC2CC2)[C@@H](C)CN([C@H](C)CO)C(=O)c2cc(NC(=O)CCCN(C)C)ccc2O1
11.3,CCCCOCC1CN(CCCC)S(=O)(=O)c2c(cccc2Sc2ccc(OC)c(OC)c2)O1 (configuration not stated)
1.4[16.7 µM],C[C@H](CO)N1C[C@H](C)[C@H](CN(C)C(=O)c2ccc3c(c2)OCO3)Oc2ncc(C3=CCCC3)cc2C1=O
20.5,COC(=O)C1=C(C)N(Cc2ccccc2C(F)(F)F)C(=NCc2ccccc2)NC1c1ccc(C(F)(F)F)cc1 (configuration not stated)
-7.0[16.7 µM],COc1ccc2c3c([nH]c2c1)[C@@H](CO)N(C(=O)c1cccnc1)CC31CN(C(=O)NC(C)C)C1
6.8[16.7 µM],CC(C)(C)[S@](=O)N1Cc2cc(C(=O)NCCN3CCCC3)nc(-c3cccc(-c4cccc(C#N)c4)c3)c2[C@@H]1CCO
-59.9[16.7 µM],C[C@@H]1CN([C@H](C)CO)C(=O)Cc2cc(NC(=O)Cc3cn(C)c4ccccc34)ccc2O[C@H]1CN(C)C(=O)Nc1ccc(F)cc1

Look-ups from the results shown:
CO[C@@H]1CC[C@H]2CCOc3c(C#N)cccc3C(=O)N(C)[C@H](C)C(=O)N(C)C[C@@H]1O2 in Env fusion inh shows -1.9[16.7 µM]
CO[C@@H]1CN(C)C(=O)c2cc(NC(=O)C3CC3)ccc2OC[C@@H](C)N(C(=O)CN2CCOCC2)C[C@H]1C in Env fusion inh shows -0.4[16.7 µM]

(more compounds)
Env fusion inh,molecule
-17.9[16.7 µM],C[C@@H]1CN([C@@H](C)CO)S(=O)(=O)c2ccc(-c3ccncc3)cc2O[C@H]1CN(C)C(=O)C1CCC1
23.9[16.7 µM],COc1ccccc1-c1ccc2c(c1)O[C@@H](CN(C)CC1CC1)[C@@H](C)CN([C@@H](C)CO)S2(=O)=O
7.7[16.7 µM],COc1ccc(S(=O)(=O)N(C)C[C@H]2Oc3ccc(NS(=O)(=O)c4ccc(F)cc4)cc3CC(=O)N([C@H](C)CO)C[C@H]2C)cc1
1.0,OC(c1ccccc1)(c1ccccc1)C1CCN(CCCOc2ccncc2)CC1
8.1[16.7 µM],C[C@@H]1CN([C@H](C)CO)S(=O)(=O)c2ccc(Br)cc2O[C@H]1CN(C)C(=O)C1CCC1
22.0[16.7 µM],COc1ccc(S(=O)(=O)Nc2cccc3c2O[C@H](CN(C)C(=O)Nc2cccc4ccccc24)[C@@H](C)CN([C@@H](C)CO)C3=O)cc1
4.8[16.7 µM],CN(C)C(=O)c1cccc(-c2ccc3n(c2=O)C[C@H]2N[C@@H]3[C@@H](C(=O)NC3CCC3)[C@@H]2CO)c1
6.0[16.7 µM],CCCN1C[C@@H](C)[C@@H](OC)CN(C)C(=O)c2ccc(NC(=O)c3ccccc3F)cc2OC[C@H]1C
-263.6[16.7 µM],O=C1C=CCCN1C(=O)/C=C/c1cccc(C(F)(F)F)c1
-8.2[16.7 µM],CO[C@@H]1CN(C)C(=O)c2cc(NC(=O)c3ccno3)ccc2OC[C@H](C)N(S(C)(=O)=O)C[C@H]1C
3.2[16.7 µM],C[C@H]1CN([C@@H](C)CO)C(=O)CCCn2cc(nn2)CO[C@H]1CN(C)C(=O)Nc1cccc(C(F)(F)F)c1
11.5[16.7 µM],COc1ccc2c3c(n(C)c2c1)[C@@H](CO)N(CC1CC1)CC31CCN(C(=O)CN2CCOCC2)CC1
16.2[16.7 µM],CC(C)NC(=O)NCC[C@@H]1CC[C@H](NC(=O)Nc2ccccc2)[C@@H](CO)O1
22.9[16.7 µM],Cc1noc(C)c1C(=O)N(C)C[C@@H]1OCc2ccccc2-c2c(n(C)c3ccccc23)C(=O)N([C@@H](C)CO)C[C@@H]1C
0.6[16.7 µM],O=C(CN1CCOCC1)NCC[C@@H]1CC[C@@H](NS(=O)(=O)c2ccc(F)cc2)[C@@H](CO)O1
-29.0,CCCCCCCCN1C(=O)[C@@H](CC(=O)NCCCOCCCC)C[C@@]2(C(=O)OC)C1=C[C@H](C1CCCC1)O[C@@H]2C
32.6[16.7 µM],COc1cccc(S(=O)(=O)Nc2ccc3c(c2)[C@H]2C[C@H](CC(=O)NCCc4ccccc4)O[C@@H](CO)[C@H]2O3)c1
25.1,COC(=O)C1=C(C)N(Cc2cccc(C(F)(F)F)c2)C(=NCc2ccc(OC)cc2)NC1c1cccc(C(F)(F)F)c1 (configuration not stated)
3.9[16.7 µM],O=C(C[C@H]1C[C@H]2c3cc(NC(=O)c4cccnc4)ccc3O[C@H]2[C@@H](CO)O1)NCC(F)(F)F
-11.5,COc1cccc(CNC(=O)[C@H]2CCCN2C(=O)[C@H]2CCCN2C(=O)c2ccc(Cl)cc2)c1
-4.5,CCc1cccc(Nc2cc(C)n(-c3cccc(CC)c3)c(=O)c2)c1
-11.4,C=CCN1[C@@H](CC(C)C)COc2cccc(NCCCN3CCOCC3)c2S1(=O)=O
1.5[16.7 µM],O=C(C[C@H]1CC[C@H]2[C@@H](COC[C@H](O)CN2C(=O)Nc2cc(Cl)cc(Cl)c2)O1)N1CCOCC1
7.2[16.7 µM],O=C(C[C@H]1CC[C@@H]2[C@H](COC[C@@H](O)CN2Cc2cccc(F)c2)O1)NCc1ccncc1
-52.1[16.7 µM],C[C@H](CO)N1C[C@H](C)[C@@H](CN(C)C(=O)Cc2ccccc2)OCCCC[C@H](C)Oc2ccc(NS(C)(=O)=O)cc2C1=O
6.1[16.7 µM],O=C(C[C@H]1C[C@@H]2c3cc(NC(=O)C4CCC4)ccc3O[C@@H]2[C@H](CO)O1)NCc1cccc(F)c1
-33.0[16.7 µM],O=C(C[C@@H]1C[C@@H]2c3cc(NS(=O)(=O)c4ccccc4)ccc3O[C@@H]2[C@H](CO)O1)N1CCOCC1
?,Cc1noc(C)c1S(=O)(=O)Nc1ccc2c(c1)C(=O)N([C@H](C)CO)C[C@@H](C)[C@@H](CN(C)Cc1ccc(C(F)(F)F)cc1)OCCCC[C@@H](C)O2
-4.3[16.7 µM],CC(C)NC(=O)N(C)C[C@@H]1OCCCC[C@H](C)Oc2ccc(NC(=O)C3CCCCC3)cc2C(=O)N([C@H](C)CO)C[C@@H]1C
13.9,Nc1[nH]c(C(=O)c2ccc(Br)cc2)c(-c2ccc(F)cc2)c1C(=O)NCCc1c[nH]c2ccccc12
?,COC(=O)[C@]12C[C@H](CC(=O)NCc3cccs3)C(=O)N(Cc3ccccc3)C1=C[C@H](C(C)(C)C)O[C@@H]2C
17.0,O=C(/C=C(\Nc1ccc(Cl)c(C(F)(F)F)c1)c1ccccc1)c1ccccc1
-1.6[16.7 µM],O=C(C[C@@H]1C=C[C@H](NS(=O)(=O)c2ccc(F)cc2)[C@@H](CO)O1)NC1CCCCC1
-14.1[16.7 µM],CN(C)CC(=O)Nc1ccc2c(c1)[C@@H]1C[C@@H](CC(=O)N3CCc4ccccc4C3)O[C@@H](CO)[C@@H]1O2
-20.9[16.7 µM],O=C(C[C@H]1CC[C@@H]2[C@H](COC[C@H](O)CN2CCC(F)(F)F)O1)NCC1CCCCC1
24.6,COc1ccc(OC)c(CN(CC(C)C)S(=O)(=O)c2ccccc2Br)c1
3.0[16.7 µM],CCCN1C[C@H](C)[C@H](OC)CN(C)C(=O)c2cc(NS(=O)(=O)c3ccccc3)ccc2OC[C@H]1C

Screens deposited in PubChem BioAssay by Broad Institute.
